gsp antagonist: gsp mutant antagonism | gsp-mutant cells, cAMP HTRF, 30 min; control for the full effect not named in the record | Potency, µM (highest dose often 76.9 µM), for inactives: top-dose activity change, negative = inhibition, usual class: inhibitors | 340,000 tested, 0.4% active | AID 624288; active = falling curve of any shape with a large fitted effect; inconclusive = falling curve, mostly with a smaller effect; inactive = flat or rising curve; cell line not stated here;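 note: intracellular cAMP measured with PDE inhibitor Ro 20-1724 present during compound exposure; potency is the fitted concentration of half-maximal effect; % is set by controls: 0 for no effect and ±100 for the full control effect; nearly all actives have a fitted effect of over 65% in size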
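Cells, 2000/well, grown 16–24 h in DMEM 10% FBS with 0.5 mg/ml G418, then compounds plus […] (300 uM addition stock), 30 min at 37C. cAMP read by HTRF (cAMP-d2 and anti-cAMP antibody-K in lysis buffer) after 30 min RT.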
TRPML1 inh: human mucolipin-1 channel inhibition; Q9GZU1; TRPML1-inducible cells, Ca2+ dye fluorescence, FDSS; hits give low values; inhibition of EC80 agonist-evoked calcium signal; activity change, negative = inhibition, % (concentration not given with the values); 390,000 tested, 0.02% active; AID 624415; in the data active means activity change below about -50%; inconclusive means about -30% to -50%; inactive means above about -30%;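 note: stimulus is agonist 54-4 at its EC80 concentration; % is set by controls: 0 for no effect and ±100 for the full control effect; compound concentration not given in the record; the text of the record puts the active cut at -80%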
Target sequence (Q9GZU1 whole entry, looked up): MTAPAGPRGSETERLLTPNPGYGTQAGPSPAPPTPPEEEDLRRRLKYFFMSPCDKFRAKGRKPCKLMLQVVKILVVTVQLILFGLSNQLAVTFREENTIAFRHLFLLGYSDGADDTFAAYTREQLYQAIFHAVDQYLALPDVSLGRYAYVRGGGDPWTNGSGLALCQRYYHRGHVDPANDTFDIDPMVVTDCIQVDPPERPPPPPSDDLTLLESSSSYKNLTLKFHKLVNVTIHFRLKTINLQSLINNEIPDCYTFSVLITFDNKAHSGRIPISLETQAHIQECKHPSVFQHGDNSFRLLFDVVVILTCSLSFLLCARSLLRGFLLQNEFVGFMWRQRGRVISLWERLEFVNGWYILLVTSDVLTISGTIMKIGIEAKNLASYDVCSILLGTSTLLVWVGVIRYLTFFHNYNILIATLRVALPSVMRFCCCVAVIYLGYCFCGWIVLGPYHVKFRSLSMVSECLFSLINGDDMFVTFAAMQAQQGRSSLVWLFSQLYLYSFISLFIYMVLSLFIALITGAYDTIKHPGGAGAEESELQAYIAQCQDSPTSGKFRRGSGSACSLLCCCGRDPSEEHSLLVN
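Calcium fluorescence in TRPML1-DL cells induced overnight with Tet: a 110 s read after compound pin addition, then a 110 s antagonist read after challenge with 54-4 at 4 uM final (EC80).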
TRPML1 ag: human mucolipin-1 channel agonism. 410,000 tested, 0.12% active. Q9GZU1. activation, % (no concentration beside the values). AID 624414. TRPML1-expressing cells, Ca2+ dye fluorescence, FDSS; host cell line not named in the record; reference of the full effect not given here; in the data active = activation above about 50%; inconclusive = about 30% to 50%; inactive = below about 30%; note: 0% is about no effect; the text of the record puts the active cut at 80%
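In this qHTS format, compounds were pin-transferred onto Ca8-dye-loaded TRPML1-DL cells induced with Tet overnight, and intracellular Ca2+ fluorescence was recorded kinetically for 110 s after a 10 s baseline. A subsequent 4uM final 54-4 (EC80) addition followed by a second 110 s read served as the antagonist phase.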
gsp agonist: gsp mutant agonism; 340,000 tested, 0.13% active; Potency, µM (top dose mostly 76.9 µM), for inactives: at the top dose activation (cAMP increase), most hits filed as activators; AID 624287; gsp mutant cells, cAMP HTRF, 30 min; control for the full effect not named in the record; active = well fitted activation curve with a large enough effect; inconclusive = small, poorly fitted or top-dose-only effect, or another doubt; inactive = no such curve, though single readings can be large or run the other way; cell line not stated here;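 note: phosphodiesterase inhibitor Ro 20-1724 added with compounds to block cAMP breakdown; potency is the fitted concentration of half-maximal effect; nearly all actives have a fitted effect of over 60% in size; about a fifth of the inactives were tested at one dose only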
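Cells stably selected in G418 were plated at 2000/well, grown 16-24 hr, then given compounds in DMSO with the PDE inhibitor […] (300 uM solution added) for 30 min at 37C; cAMP was read by HTRF.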
Menin-MLL FL inh: inhibitors of human menin-MLL interaction, wild-type MLL peptide; AID 1766; FP activity change, % at 61.4 µM; 290,000 tested, under 10 active; Fluorescence polarization, fluorescein-MLL peptide displacement from menin; inconclusive = falling polarisation curve, or a change in total fluorescence; inactive = total fluorescence flat and polarisation flat or rising; no compound was filed as active; the % refers to the polarisation; negative = inhibition;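 note: % of control where 0% means no effect; inhibitors lower the polarisation; unlabelled MLL peptide was the positive control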
ClpP mod: qHTS Assay for Activators of ClpP; ATP-dependent Clp protease proteolytic subunit (Bacillus subtilis (strain 168)), P80244; purified B. subtilis ClpP, FRET peptide cleavage, 20 min; Potency, µM (series often up to 57.5 µM), without a hit: top-dose activity change, negative = active; 340,000 tested, 1.9% active; active = well fitted falling curve with a large enough effect; inconclusive = small, poorly fitted or top-dose-only effect; inactive = no such curve, though single readings can be large or run the other way; note: potency is the fitted concentration of half-maximal effect; the source files actives as falling curves though it sought activators and does not explain the sign; nearly all actives have a fitted effect of over 65% in size; many hits overshoot -100%
Target sequence (P80244 whole entry, looked up): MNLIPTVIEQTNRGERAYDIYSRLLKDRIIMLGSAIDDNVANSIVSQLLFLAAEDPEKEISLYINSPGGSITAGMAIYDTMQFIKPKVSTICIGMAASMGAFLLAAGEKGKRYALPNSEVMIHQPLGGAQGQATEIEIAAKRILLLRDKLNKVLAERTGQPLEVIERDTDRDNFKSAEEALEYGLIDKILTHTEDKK
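FRET quenching reversal measured ClpP activation: 10 microg/mL B. subtilis ClpP at pH 8 with the FRET-FV decapeptide, read at 430 nm after 320 nm excitation. The 20-min minus 0-min signal was scaled between DMSO/no-enzyme wells and ADEP (5.8 microM final).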
Active calls of the source: *; ? = inconclusive; · = no result given; [ ] = dose if it differs, or a comment. Rows are unselected; any-hit rate near 2.1%.

Structure,gsp antagonist,TRPML1 inh,TRPML1 ag,gsp agonist,Menin-MLL FL inh,ClpP mod
CCS(=O)(=O)CCSc1nc2ccccc2o1,14%,1,4.7,-38%[inhibitor],-0.6,-1.8%
COc1ccc(CNc2nc3ccccc3n2C)c(OC)c1,8%,0,-1.4,-14%[15.4 µM],1.5,0.0%
Cc1ccc(S(=O)(=O)CCSc2ccc(C(F)(F)F)cn2)cc1,11%,20,1.0,0%,-0.6,0.0%
COc1ccccc1C(=O)Nc1ccccc1C(=O)NC1CCCCC1,0%,2,1.0,-7%[15.4 µM],·,-2.0%
Cc1cc(C)c2c(-n3cccc3)c(C(=O)NNS(=O)(=O)c3ccc(Br)cc3)sc2n1,?,-7,0.8,-2%,7.0,-1.8%
O=C1CC(C(=O)Nc2nccs2)C(c2ccccc2)O1 (stereo unspecified),-6%,22,-0.3,0%,1.3,0.5%
N#Cc1ccc(OCC(=O)NCC2COc3ccccc3O2)cc1 (stereo unspecified),22%,-4,-0.6,-34%[inhibitor],·,-0.7%
CC(NCC(=O)NC(=O)NCCC1=CCCCC1)c1ccc(S(N)(=O)=O)cc1 (stereo unspecified),6%,-1,2.7,-9%,·,-1.7%
CCOC(=O)c1sc(NC(=O)CN2CC(C)OC(C)C2)nc1C (stereo unspecified),4%,15,0.0,-32%[inhibitor],0.5,·
O=C(NCc1ccco1)c1ccc(=O)[nH]n1,-4%,9,1.1,?,0.8,0.9%
CCc1nc2c(OCc3ccc(C(=O)N(C)C)cc3)cccn2c1N(C)C(=O)c1ccc(C)cc1,·,-20,-0.7,·,·,-0.8%
CCOc1ccc(NC(=O)c2sc3nc4c(c(-c5ccccc5)c3c2N)C(=O)CC(C)(C)C4)cc1,·,24,2.7,·,·,-4.0%
COc1ccc(C(=O)OCC(=O)NC2CCCC2)c(OC)c1OC,9%,3,0.9,17%,0.1,·
O=C(NC1CCCC1)c1cccc(Oc2ccccc2)c1,2%,-1,1.6,-28%,-0.3,·
CC(=O)Nc1cccc(OCCCNC(=O)c2cccc3ccccc23)c1,-4%,10,1.3,16%,1.0,·
CC1CCN(S(=O)(=O)c2cccc(C(=O)Nc3ccccn3)c2)CC1,-6%,21,0.3,4%,-1.0,0.2%
N#CCCN(C(=O)COC(=O)CCc1c[nH]c2ccccc12)c1ccccc1,3%,2,-1.0,-10%,·,-1.5%
CCOC(=O)c1ccc(N2C(=O)C3C(C2=O)C(C(=O)c2ccc(Cl)cc2)N2CCCC32)cc1 (stereo unspecified),3%,-1,0.4,13%,?,-4.2%
Cc1ccc(OCCNC(=O)c2ccco2)cc1C,3%,14,-0.7,-1%,4.9,-0.8%
CCN1C(=O)c2cccc3c(N)ccc1c23,-23%,-12,0.3,28%,-1.2,-8.0%
C=CCS(=O)(=O)N1CCCC(N2CCN(c3ccccc3OC)CC2)C1 (stereo unspecified),7%,0,0.4,-19%,-4.4,-2.7%
CCOc1cccc2sc(NC(=O)c3ccc(S(=O)(=O)N4CCCc5ccccc54)cc3)nc12,·,-1,-0.1,·,·,-22%
c1cncc(N=c2scc(-c3cccc4ccccc34)n2CCCn2ccnc2)c1,9%,58,1.4,16%,3.8,0.9%
Cc1cccc(N(C(=O)c2ccco2)C(C(=O)NC2CCCC2)c2ccco2)c1C (stereo unspecified),-18%,-6,0.2,0%[15.4 µM],-0.6,·
Cc1c(C(=O)Nc2ccc(Cc3ccncc3)cc2)cccc1[N+](=O)[O-],-11%,-9,0.7,3%[15.4 µM],2.4,·
CCN(CC)S(=O)(=O)c1ccc(N2CCCC2)c(NS(=O)(=O)c2ccc(OC)cc2)c1,1%,8,-0.4,-11%,2.7,0.1%
O=C(COC(=O)Cc1n[nH]c(=O)c2ccccc12)Nc1ccc(Cl)cn1,-16%,3,-0.6,-52%,·,-2.3%
CC(C)(C)NC(=O)CN1CCN(C(=O)CCl)CC1,-4%,-22,-0.8,7%[15.4 µM],-3.9,-0.3%
COc1ccc(C2=NS(=O)(=O)N(C)C(C(=O)NCc3ccccn3)=C2)cc1,-7%,14,-1.4,-5%,1.2,-1.7%
C#CCOCCOCCOCCNc1nc(N2CCN(C(=O)CCCCCCCCCCNC(=O)[C@H](CCCCN)n3cc(CCCC(=O)O)nn3)CC2)nc(N2CCN(C(=O)CCCCCCCCCCNC(=O)[C@H](CCCN=C(N)N)n3cc(C[C@@H](C)CC)nn3)CC2)n1,3%,1,-0.3,·,·,2.3%
Cc1cc(OCc2cc(C(=O)NCc3cc(C(C)C)no3)no2)cc(C)c1Cl,-1%,-19,0.0,-32%[inhibitor],·,-2.9%
COc1ccc2c(c1)c(=O)c(S(=O)(=O)c1ccc(Cl)cc1)cn2C,·,-3,0.0,·,·,-6.6%
Cn1nccc1C(=O)N1CCN(S(=O)(=O)c2ccc(Br)s2)CC1,-1%,-10,-0.5,-5%,·,-8.3%
CC(NC(=O)c1ccc(F)cc1)c1nc2ccccc2n1Cc1ccccc1F (stereo unspecified),-8%,-18,0.0,-13%,6.1,-0.1%
C/C(=N/NC(=O)c1ccc(-c2ccccc2)cc1)c1cc(O)cc(O)c1,-14%,62,1.4,15%,·,-1.3%
CC(=O)Oc1cccc(N2C(=O)C3CC=CCC3C2=O)c1 (stereo unspecified),25%,-6,-0.1,5%,0.1,1.4%
Cc1ccc(NC(=O)COC(=O)C2=NNC(=O)CC2)c(Br)c1,9%,-7,0.4,-52%[inhibitor],·,-5.0%
CCN1CCN(c2ccc(Cl)cc2NC(=O)c2ccco2)CC1,15%,6,-1.3,-51%[inhibitor],·,0.9%
COc1ccc(OCc2nnc(SCC(=O)Nc3cccc(Cl)c3)o2)cc1,1%,-9,2.8,15%,·,·
O=C(OCc1ccccc1)/C(=C/c1ccccc1Cl)NC(=O)c1ccco1,?,38,4.0,9%,·,-2.8%
COc1ccc(Cn2c(CNS(=O)(=O)c3ccc4c(c3)CCCC4)nc3cccnc32)cc1,·,-3,0.7,·,·,-1.1%
CC(NC(=O)C(=O)N/N=C/c1ccccc1)c1ccccc1 (stereo unspecified),2%,20,1.1,-47%[inhibitor],-1.2,1.8%
OC(CNCCc1ccc(C(F)(F)F)cc1)COC(c1ccccc1)c1ccccc1 (stereo unspecified),6%,·,·,-35%[inhibitor],-7.7,-3.5%
CC(=O)N1CCc2cc(S(=O)(=O)NC(C(=O)Nc3ccc4c(c3)OCCO4)C(C)C)ccc21 (stereo unspecified),-1%,-2,0.8,19%,-1.4,-2.1%
Cc1ccc(CN(C)C(=O)c2ccccc2NC(=O)c2ccccc2)o1,9%,-9,2.1,11%,·,-2.8%
O=C1NC(=O)C(=O)N1,-5%,-6,0.2,·,·,1.3%
CC(C)NC(=O)NC(=O)CN1C(=O)NC2(CCc3ccccc3C2)C1=O (stereo unspecified),9%,-2,0.7,-40%[inhibitor],1.7,·
CC1=C(C(=O)N(C)C)CC(CC(=O)NCCc2ccccn2)C(=O)N1CCC1=CCCCC1 (stereo unspecified),·,-2,-0.5,24%,·,0.8%
CC(n1cnnn1)C12CC3CC(CC(C3)C1)C2 (stereo unspecified),9%,11,0.4,-14%,-0.2,0.2%
Nc1nnc(SCCOc2cccc(Br)c2)s1,-5%,2,0.8,-37%[inhibitor],-1.4,-0.1%
Cc1nn2c(=O)cc(COC(=O)c3ccccc3NC(=O)C3CCCCC3)nc2s1,·,6,1.0,·,·,-1.3%
Cc1ccc(NC(=O)CS(=O)(=O)c2nc(-c3ccc(C)cc3)cn2-c2ccc(C)cc2)cc1,·,11,0.0,·,·,-6.5%
COc1ccc(S(=O)(=O)N2CCN(C)CC2)cc1C(=O)N1CCCCC1,10%,16,0.6,5%,·,-1.2%
Cc1nn(Cc2noc(C(=O)NC(C)c3ccccc3)n2)c(C)c1Br (stereo unspecified),·,8,0.8,·,·,-0.3%
NNC(=O)[C@@H]1C[C@@H]1c1ccccc1,8%,-15,4.6,-5%,1.3,1.4%
O=C(c1ccc(S(=O)(=O)Cc2cc(F)ccc2F)c([N+](=O)[O-])c1)N1CCOCC1,·,-5,-0.3,-50%[inhibitor],·,1.0%
O=C(NCCN1CCOCC1)c1csc2c1CCCCC2,-1%,-8,0.2,-45%[inhibitor],1.1,-1.3%
O=C(CCCNS(=O)(=O)c1ccc(Cl)c(Cl)c1)NCCc1ccccn1,10%,-3,-1.4,13%[15.4 µM],-0.4,2.0%
CCOc1ccc(N(C(=O)c2snc(C(N)=O)c2N)C(C(=O)NC2CCCC2)C(C)C)cc1 (stereo unspecified),?,-4,-1.0,-2%[15.4 µM],2.0,?
COc1ccc(C(=S)N2CCN(c3ccccc3C)CC2)cc1,-2%,27,0.4,16%,5.3,-3.4%

(further entries)
Structure,gsp antagonist,TRPML1 inh,TRPML1 ag,gsp agonist,Menin-MLL FL inh,ClpP mod
O=C1COc2ccc(S(=O)(=O)N3CCC(C(=O)NCc4ccccc4)CC3)cc2N1,16%,9,-0.2,-33%[inhibitor],·,0.0%
Nc1cc(Cl)nc(N/N=C/c2ccccc2[N+](=O)[O-])n1,16%,-7,0.5,-37%[inhibitor],-1.5,0.1%
COc1ccc(-c2cc(=O)oc3cc(OCC(C)=O)ccc23)cc1,-2%,18,-0.6,-2%,5.6,-23%
CC(OC(=O)c1cccc(Cl)c1)C(=O)NC1CCCCC1C (stereo unspecified),5%,-14,-0.1,9%,·,0.2%
O=C(O)c1ccccc1Sc1ncnc2sc3c(c12)CCC3,23%,-21,-1.5,31%[15.4 µM],2.7,1.3%
COc1ccccc1NS(=O)(=O)N(C)C,-6%,12,-1.0,25%,3.6,0.9%
CCCCc1nc2ccccc2c(NC(=O)CN2CCN(C)CC2)c1CCC,21%,12,0.5,-49%,0.7,?
Cc1ccc(-n2ncc(C(=O)NCCN3CCN(C)CC3)c2C2CCN(C(=O)OC(C)(C)C)CC2)cc1C,·,-19,0.0,·,·,0.7%
O=C(COC(=O)C1=COCCO1)Nc1ccc(OC(F)F)cc1,10%,13,0.0,4%[15.4 µM],2.8,·
CCOc1ccc(/C=C\c2nc(O)c([N+](=O)[O-])c(=O)[nH]2)cc1OCC,10%,6,0.1,-20%,-3.1,-0.7%
COc1ccc(OCc2cc(C(=O)NCC(C)Oc3cccnc3)no2)c(Cl)c1 (stereo unspecified),?,-14,-0.5,15%[15.4 µM],·,3.6%

Compound activity: PubChem BioAssay, National Center for Advancing Translational Sciences (NCATS)
